Compound activity as filed in PubChem BioAssay.
VACV Venus inh: vaccinia inhibition (Venus reporter); 330,000 tested, 0.46% active; Potency, µM (doses to about 36.5 µM), for the others: at the top dose activity change, negative = inhibition, hits mostly inhibitors; Vaccinia virus Venus reporter expression, fluorescence; active means well fitted inhibition curve with a large enough effect; inconclusive means small, poorly fitted or top-dose-only effect; inactive means no such curve, though single readings can be large or run the other way; tested in A549 cells; note: nearly all actives have a fitted effect of over 30% in size; inactives centre near -10
VACV mCherry inh: vaccinia inhibition (mCherry reporter); Vaccinia virus mCherry reporter infection, fluorescence; about a quarter of the inactives have no number; 310,000 tested, 0.63% active; Potency, µM (doses to about 36.5 µM), without a hit: top-dose activity change, negative = inhibition, usual class: inhibitors; AID 720579; active = well fitted inhibition curve with a large enough effect; inconclusive = small, poorly fitted or top-dose-only effect; inactive = no such curve, though single readings can be large or run the other way; tested in A549 cells; note: nearly all actives have a fitted effect of over 35% in size; inactives centre near -10
Starred values were filed as active, the others as inactive; i = inactive; ? = inconclusive; · = no result given; & = joins results of further samples; [ ] = remark or other dose. % is set by controls: 0 for no effect and ±100 for the full control effect; potency is the fitted concentration of half-maximal effect.

SMILES	VACV Venus inh	VACV mCherry inh
NN=C(N)N	-12.1%&-12.5%	-11.4%
CC(C)Oc1ccc(CNC(=O)c2ccc(CS(=O)c3cccc(Cl)c3)o2)cc1 (centres undefined)	-13.1%	-15.2%
COC(=O)CSc1ncc(S(=O)(=O)c2ccccc2)c(=O)[nH]1	-13.8%	-4.0%
O=C(CSc1n[nH]c(-c2ccccc2)n1)N1CCCC1	-1.2%	-0.4%
Cc1cccc(CNC(=O)Nc2nnc([C@@H]3C[C@H](O)[C@@H](CO)O3)s2)c1	-2.8%	3.4%
C=CCNC(=O)c1c(CSc2ccc(Cl)cc2)noc1C(=O)NCc1ccccc1	-25.2%	?
COc1ccc(CN2C(=O)C(CC(=O)NCC3CCCCC3)CC(C(=O)N3CCOCC3)=C2C)cc1 (centres undefined)	-16.1%	-3.8%
c1cc(SC2CCCCC2)cc(-c2nc3cnccn3c2NC2CCCCC2)c1	?	?
O=C(O)c1ccc(B(O)O)cc1	-7.8%	-11.2%
Cc1cc(C)c(S(=O)(=O)c2cccc(C(F)(F)F)c2)c(=O)[nH]1	-1.3%	-21.4%
OCCN1CCN(CC(O)COCCOc2ccc(Br)cc2)CC1 (centres undefined)	2.1%	-13.2%
COc1cccc(NC(=O)CCC2CCN(C(=O)C(OC)c3ccccc3)CC2)c1 (centres undefined)	-8.1%	-12.0%
C/C(=N\NC(N)=O)c1c(F)cccc1F	0.2%	i
COc1ccc(-n2ncc3c2CC(C)(C)CC3NC(=O)CCn2cncn2)cc1 (centres undefined)	-16.6%	i
O=Cc1cccc2ccc3cccc(C(=O)O)c3c12	-3.2%	-13.4%
CC(C)(C)c1ccccc1NC(=O)CN1C(=O)NC2(CCCC2)C1=O	-4.7%	-17.6%
Cc1ccc(-n2c3c(cc(C(=O)NCC(=O)c4ccccc4)c2=O)C(=O)CCC3)cc1	-5.8%	-25.1%
N#CC(Sc1ccccn1)c1ccc(Cl)cc1 (centres undefined)	-25.1%	-14.1%
CCC(CC)C(=O)N1CC(=O)Nc2ccc(F)cc2C1c1ccc(F)cc1 (centres undefined)	-13.1%	?
CCC12CN3CCN(CC(C3)/C1=N/NC(=O)c1ccncc1)C2	-6.1%	i
CCCCCCSC1=C(C#N)C(c2ccc(O)cc2)CC(=O)N1 (centres undefined)	?	·
O=C1CCCN1CN(C(=O)c1ccccc1)c1ccccc1	-17.9%	-1.5%
CCOc1cc2[nH]c(=S)n(C3CCN(Cc4ccccc4)CC3)c(=O)c2cc1OCC	-3.8%	-22.1%
Cc1ccc2nc(C3CCCCC3)c(Cc3cccc(Cl)c3)n2c1	-8.2%	i
CCOC(=O)c1noc2ncn(Cc3ccc([N+](=O)[O-])cc3)c(=O)c12	-6.6%	-21.1%
Cc1nn(-c2ccccn2)c2c1C(=O)CC(C)(C)C2N=[N+]=[N-] (centres undefined)	?	?
O=C(c1ccc(-n2cnnn2)cc1)N1CCOCC1	-2.0%	·
CCC1CN(CCNC(=O)c2ccc3c(c2)OCO3)Cc2cc(OC)ccc2O1 (centres undefined)	-6.3%	-13.7%
NC(=O)c1cccc(-c2ccnc3c2CC(C(=O)Nc2cccc(Oc4ccccc4)c2)O3)c1 (centres undefined)	-11.8%	7.7%
CC(=O)c1cccc(NC(=O)C2CCN(C(=O)c3cnn(-c4ccccc4)c3-n3cccc3)CC2)c1	-0.4%	-4.6%
O=C(C#Cc1ccccc1)Nc1cccc(F)c1	?	3.55µM*
O=C(NC1CCCCC1)C(c1ccncc1)N(C(=O)Cc1cccs1)c1ccccc1 (centres undefined)	2.9%	-8.2%
O=C(OCC(=O)N1CCN(c2ccccc2)CC1)C1CCCN1S(=O)(=O)c1ccc(Cl)cc1 (centres undefined)	-8.3%	-7.5%
O=C(NC1CCCC1)C(c1ccncc1)N(C(=O)Cc1cccs1)c1ccc(F)cc1 (centres undefined)	-4.2%	-7.6%
COc1ccc(-n2c(N)cc(=O)nc2SCC(=O)NC2CCCCC2)cc1	-7.4%	i
O=C(CP(=O)(O)CC(=O)c1ccccc1)c1ccccc1	-15.4%	i
Cc1ccc(CN2CCC(=O)N(Cc3ccccn3)CC2)c(C)c1	-15.7%	-18.9%
CN(C)c1ccc(CNC(=O)CCC(=O)N2Cc3ccccc3Oc3ncccc32)cc1	-5.4%	-4.5%
O=C(N[C@@H](Cc1c[nH]c2ccccc12)C(=O)O)c1ccccc1Cl	-5.5%	-27.6%
CC(=NNc1nc2ccccc2s1)c1ncccn1	19.2%	1µM*
O=C1CSC(c2ccccc2)N1Nc1nc(N2CCOCC2)nc(N2CCOCC2)n1 (centres undefined)	-0.2%	-5.1%
CCN(CC(=O)Nc1cccc(C(C)=O)c1)S(=O)(=O)c1ccc(OC)cc1	-5.8%	·
Cc1ccc(NC(=O)C2CCCN(c3ncccn3)C2)cc1F (centres undefined)	-14.1%	-14.7%
CNc1ncnc2c1ncn2[C@H]1CN(Cc2cccc3ccccc23)C[C@@H](CO)O1	1.0%	-15.3%
COc1ccc(CCNC(=O)Cn2c(=O)c3cccn3c3ccccc32)cc1OC	-5.2%	-1.2%
Cc1nc(-n2nc(C)c(CCC(C)C)c2C)sc1C(=O)Nc1cccc(Cl)c1	-15.0%	-12.0%
COc1ccc(OC(C)=O)c(C2c3cc(OC)c(OC)cc3CCN2C(C)=O)c1 (centres undefined)	-12.1%	-1.7%
COc1cccc(NS(=O)(=O)c2c(C)nc3sccn3c2=O)c1	-12.7%	-10.1%
CC1(c2ccccc2Cl)NC(=O)N(CC(=O)NCCC2=CCCCC2)C1=O (centres undefined)	-5.3%	6.0%
COc1ccccc1C(=O)N1CCC(N2CCN(c3ccccc3)CC2)CC1	-8.2%[7.34 µM]	-9.0%[7.34 µM]
Cc1ccc(S(=O)(=O)NCC(=O)NCc2ccncc2)cc1	-11.4%	·
CCOC(=O)C1CCN(Cc2cn(C)nc2-c2ccc(Oc3ccccc3)cc2)CC1	-11.7%	-11.7%
O=C(NCCN1CCCCC1)Nc1ccc(F)cc1	-2.7%	-2.8%
CC(C)c1nnc(NC(=O)C2CCCN2C(=O)Nc2ccccc2)s1 (centres undefined)	1.8%	25.9%
O=C(C1CCCN(S(=O)(=O)Cc2ccccc2)C1)N1CCc2ccccc21 (centres undefined)	-8.2%	-12.3%
CN(C(=O)c1cccc(NC(=O)Cc2cccc(NC(=O)C3CCN(C(=O)C4CCCCC4)CC3)c2)c1)C1CCC1	-18.2%	i
CCOc1ccc(NC(=O)CN(C)C(=O)c2cccnc2Sc2ccccc2Cl)cc1OCC	-11.4%	-13.8%
CN1C(=O)N(C)C(=O)C2(Cc3ccccc3N3CCOCC32)C1=O (centres undefined)	2.0%	1.2%
O=C(CSc1nnc(-c2ccc(O)cc2)n1-c1ccccc1)CC(=O)Nc1ccccc1	1.3%	-10.6%
COCCCNC(=O)c1ccc([N+](=O)[O-])c(Cl)c1	-11.7%	-8.5%

Record cards, from the list above:
CC1(c2ccccc2Cl)NC(=O)N(CC(=O)NCCC2=CCCCC2)C1=O (centres undefined) is entered as VACV Venus inh = -5.3%; VACV mCherry inh = 6.0%
CN1C(=O)N(C)C(=O)C2(Cc3ccccc3N3CCOCC32)C1=O (centres undefined) is entered as VACV Venus inh = 2.0%; VACV mCherry inh = 1.2%
Cc1ccc(S(=O)(=O)NCC(=O)NCc2ccncc2)cc1 is entered as VACV Venus inh = -11.4%; VACV mCherry inh = ·

(next part)
SMILES	VACV Venus inh	VACV mCherry inh
NC(=O)c1cccnc1	-18.0%	i
Cc1ccc2nc(N3CCC(C(=O)NCc4ccc(F)cc4)CC3)[nH]c2c1	-4.6%	-6.2%
Nn1c(SCC(=O)NCC2CCCO2)nnc1-c1ccco1 (centres undefined)	-17.8%	i
CCOC(=O)[C@@H]1[C@H]2COc3cc(OC)ccc3[C@H]2N2C(=O)N(c3ccc(Cl)cc3)C(=O)[C@]12C	-15.1%	i
CCOc1ccc(C(C)=O)cc1CSc1nnnn1-c1ccc(O)cc1	-15.5%	-6.0%
COc1cccc(C(=O)COC(=O)c2ccc(NC(C)=O)cc2)c1	-6.7%	i
Nc1cccc2c1C(=O)c1ccc(Cl)cc1C2=O	63.0%[activator]	-15.8%
COc1cccc(NC(=O)C(Cc2ccccc2)N2Cc3ccccc3C2=O)c1 (centres undefined)	-8.9%	i
O=C(CNC(=S)N(Cc1ccccc1)Cc1cccnc1)NCc1ccccc1	-1.5%	?
CN(Cc1cccc(F)c1)C(=O)c1ccc(S(=O)(=O)N2CCCCCC2)cc1	-4.9%	-14.1%
COCCn1c(SCC(=O)N2CCC(C)CC2)nc2c([nH]c3ccccc32)c1=O	-6.5%	-4.6%
O=C(Nc1ccc2c(c1)OCCO2)C1c2ccccc2C(=O)N2CCc3ccccc3C12 (centres undefined)	-10.9%	-4.2%
CC(C)(C)c1cc(=O)n2c(nc3ccccc32)[nH]1	-12.3%	-1.4%
CCCS(=O)(=O)N1CCC(CCOc2ccccc2)(C(=O)OCC)CC1	-16.9%	-18.0%
O=C(CSc1ccc(Cl)cc1)NCc1ccncc1	-4.6%	-9.2%
COc1ccc(NC(=O)Cn2nnc(C(=O)Nc3ccc(C)c(F)c3)c2N)cc1Cl	-5.4%	i
CCN(c1ccccc1)S(=O)(=O)c1ccc(OC)c(NC(=O)c2cc(F)c(F)c(F)c2F)c1	-9.2%	-17.3%
Cc1ccc(/C=N/NC(=O)Cn2ccc(C(F)(F)F)n2)o1	7.1%	i
CC1(C)Cc2c(C#N)c(SCCO)nc(N3CCOCC3)c2CO1	-17.7%	-22.6%
O=C1NC(=O)N(Cc2ccco2)C(=O)/C1=C\c1cccn1CCOc1ccccc1	-6.1%	-15.6%
CC(C)(CO)NC(=O)CC1C(=O)NCCN1CC(c1ccccc1)c1ccccc1 (centres undefined)	-7.0%	-8.7%
c1ccc(N2CCN(c3ncnc4c3nc3n4CCCC3)CC2)cc1	?	-28.6%
O=C(COc1ccccc1)Nc1ccc(F)cc1	-7.3%	-20.0%
O=C(Nc1ccnn1C1CCN(CCCc2ccccc2)CC1)c1ccccc1Cl	-23.8%	-9.0%

Ordered by molar mass (largest number first): part of the list above
SMILES	VACV Venus inh	VACV mCherry inh
CCN(c1ccccc1)S(=O)(=O)c1ccc(OC)c(NC(=O)c2cc(F)c(F)c(F)c2F)c1	-9.2%	-17.3%
Cc1ccc(/C=N/NC(=O)Cn2ccc(C(F)(F)F)n2)o1	7.1%	i
O=C(CSc1ccc(Cl)cc1)NCc1ccncc1	-4.6%	-9.2%

Later entries:
SMILES	VACV Venus inh	VACV mCherry inh
O=C(NCCCN1CCCCCC1)c1ccc2c(c1)sc1nc(-c3ccccc3)cn12	?	-15.9%
CC(C)N(C)c1ncnc2c1ncn2[C@H]1CN(CCc2ccccc2)C[C@@H](CO)O1	-2.2%	-7.6%
COC(=O)c1cc(OC)c(OC)cc1NC(=O)CCN1C(=O)C2CCCCC2C1=O (centres undefined)	-5.0%	-6.6%
Cc1cc(O)cc2c1C(c1ccc(F)cc1)CC1(CC(C)(C)NC(=S)N1)O2 (centres undefined)	-1.0%	-8.5%
Cn1c(=O)[nH]c(=O)c2c1nc(NCCCO)n2CCCc1ccccc1	-26.7%	-2.2%
Cc1c(C(=O)NCc2ccc3c(c2)OCCO3)sc(=O)n1Cc1ccc(C(=O)N(C)C)cc1	-11.8%	i
O=C(Nc1ccc(NC(=O)C2CCCN2C(=O)OCc2ccccc2)cc1)c1ccco1 (centres undefined)	-13.9%	·
COc1ccc(-c2nc3ccccc3c(=O)n2CC(C)C)cc1	-16.2%	-19.9%
O=C(CSc1ccccc1)Nc1ccccc1N1CCOCC1	-16.2%	-15.3%
NC1=NC2OC(CO)C(O)C2O1 (centres undefined)	5.6%	i
CC(C)C1CC(=O)NC(SCC(=O)Nc2ccc(Br)cc2)=C1C#N (centres undefined)	?	·
O=C(CN(c1ccc(F)cc1)S(=O)(=O)c1ccc2c(c1)OCCO2)Nc1cccnc1	14.1%	·
CC(N)c1csc(Nc2ncccn2)n1 (centres undefined)	?	-6.5%
C=CCOC(=O)c1ccccc1C(=O)OCC1CO1 (centres undefined)	19.7%	i
O=C1NC[C@H](Cc2ccc(O)cc2)N(C[C@@H]2CCCN2C[C@H](Cc2ccc(O)cc2)N2C[C@H](Cc3ccccc3)N(CCc3ccccc3)C(=O)C2=O)C1=O	2.0%	-12.0%
CC(=O)N1Cc2cnnn2-c2ccccc2C1(C#N)Cc1ccccc1 (centres undefined)	-0.4%	-1.5%
COc1cc(NC(=O)C2CCN(S(=O)(=O)c3cnc[nH]3)CC2)cc(OC)c1OC	-3.8%	i
Cc1ccc(NS(=O)(=O)c2ccc3c(c2)NC(=O)C(C)C(=O)N3)c(Cl)c1 (centres undefined)	-11.3%	i
COc1ccc(-c2coc3c(C(=O)NCCc4ccccc4)cccc23)c(C)c1	-6.5%	7.9%
O=C(O)C1=C[C@@H](c2ccc3c(c2)OCO3)C[C@@H](OCc2ccc(CO)cc2)O1	-4.3%	i
COc1cccc2sc(N3CCN(C(=O)C4COc5ccccc5O4)CC3)nc12 (centres undefined)	?	?
Fc1ccc(Sc2cc(Cl)c(-c3ccccc3)nn2)cc1	-11.0%	·
COc1ccc(NC(=O)Cn2cnc3sc(C)c(S(=O)(=O)N4CCN(C)CC4)c3c2=O)cc1Cl	-5.1%	-12.2%
Cc1cccc(N2CC(C(=O)Nc3ccc(S(=O)(=O)NCC4CCCO4)cc3)CC2=O)c1C (centres undefined)	-5.7%	-5.4%
O=C(NCCOc1ccccc1Cl)c1ccc2c(c1)S(=O)(=O)c1cc(Cl)ccc1C2=O	-6.2%	?

Not a hit list. Share with any hit: about 0.87%.
